Mtb growth: M. tuberculosis H37Rv growth inhibitors, H37Rv strain (AID 1626); M. tuberculosis H37Rv growth inhibition; higher % means a stronger effect; hit rate 0.95% among 220,000; one-dose inhibition, % at 10 µM; IC50 in µM for titrated hits;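 active = confirmed in a dose series; inconclusive = inhibition above 80% but not taken into the dose series; inactive = below 80% or under 30% at every dose of the series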;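 note: bacteria incubated seven days before Alamar blue readout; 0% = bacteria only wells and 100% = bacteria with antibiotic wells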
Arbovirus anti: arbovirus infection inhibition. arbovirus infection cell-based antiviral screen. inhibition, % at 10 µM. hit rate 0.37% among 200,000. AID 1251;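 active = inhibition from about 30%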;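 note: bluetongue infection of BSR cells; cell survival read as ATP light after 72 h; 0% = infected wells without compound and 100% = uninfected wells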
RecA intein inh: blocks M. tuberculosis RecA intein splicing; P9WHJ3; cell-free RecA intein splicing, fluorescence; inhibition, %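 (about 9 µM by stock and volumes)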; hit rate 0.75% among 290,000; in the data active = inhibition above about 30%; inconclusive = no clear call, values can overlap the other calls;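 note: 0% = vehicle wells and 100% = reference inhibitor control wells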
Target sequence (P9WHJ3 whole entry, looked up): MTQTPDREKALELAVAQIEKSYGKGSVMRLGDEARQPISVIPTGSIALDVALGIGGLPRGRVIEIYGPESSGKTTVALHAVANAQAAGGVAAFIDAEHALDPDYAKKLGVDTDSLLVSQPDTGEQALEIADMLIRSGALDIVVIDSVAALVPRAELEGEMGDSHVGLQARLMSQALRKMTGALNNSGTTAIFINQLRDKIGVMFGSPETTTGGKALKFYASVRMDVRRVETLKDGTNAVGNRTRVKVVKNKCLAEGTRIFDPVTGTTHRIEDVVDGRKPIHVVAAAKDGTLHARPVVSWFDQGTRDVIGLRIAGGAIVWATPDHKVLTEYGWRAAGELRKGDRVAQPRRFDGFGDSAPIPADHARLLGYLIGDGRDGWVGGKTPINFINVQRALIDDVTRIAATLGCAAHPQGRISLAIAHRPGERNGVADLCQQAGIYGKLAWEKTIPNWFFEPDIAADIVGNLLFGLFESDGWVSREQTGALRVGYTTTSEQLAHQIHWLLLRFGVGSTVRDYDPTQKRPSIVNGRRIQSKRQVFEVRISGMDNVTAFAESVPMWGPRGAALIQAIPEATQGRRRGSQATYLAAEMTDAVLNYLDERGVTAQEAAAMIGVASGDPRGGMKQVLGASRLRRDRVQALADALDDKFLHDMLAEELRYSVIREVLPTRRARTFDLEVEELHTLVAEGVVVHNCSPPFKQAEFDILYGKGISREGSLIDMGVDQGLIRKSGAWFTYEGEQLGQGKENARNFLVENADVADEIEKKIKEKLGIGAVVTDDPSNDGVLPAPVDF
YopH PTP inh: inhibitors of Yersinia enterocolitica YopH tyrosine phosphatase | inhibition, %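 (about 10 µM by stock and volumes)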 | fluorescence Ex485/Em525 | AID 898 | hit rate 0.16% among 140,000;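 active = inhibition of 50% or more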;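 note: controls were vehicle for no effect and minimum signal wells for full effect; inactives centre near -20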
Mtb betalactam: beta-lactam sensitization of Mtb H37Rv | M. tuberculosis H37Rv growth with meropenem, percent inhibition; hits of this screen are not shown here | inhibition, % at 25 µM | hit rate 0.27% among 330,000 | AID 434955;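 active = about 74% or more and at least 40 points above the plate without the antibiotic, then above 30% in a dose series; inconclusive = first-round hits that could not be retested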;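 note: growth measured after seven days incubation then overnight dye step; 0% = bacteria only wells and 100% = bacteria with antibiotic; twin plates without the antibiotic show which effects depend on it; some results filed as inactive read as strong as hits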
Arbovirus anti repeat: recorded beside Arbovirus anti, whose call it bears; inhibition, %; measured here: 10K subset replicate screen; many hits read low in the repeat;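 first of two repeat runs on a subset; 0% = infected and 100% = uninfected wells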
Numbers without * were called inactive; ? = inconclusive; nt = not tested or not shown. An excerpt; rates above refer to the full screens.

SMILES	Mtb growth	Arbovirus anti	RecA intein inh	YopH PTP inh	Mtb betalactam	others
COc1ccccc1N(CC(=O)NCCc1ccccc1)C(=O)CCC(=O)Nc1nccs1	nt	nt	-2.8	nt	-1.0
O=C(c1ccc(Cl)cc1)C1CCCN(Cc2cccc3ncccc23)C1 (centres undefined)	9.6%	0.6	-138.1	nt	1.7
N#Cc1ncc(-c2ccc3c(c2)OCCOCCOCCOCCOCCO3)nc1C#N	1.8µM*	-4.5	44.1*	-19.8	100.0
O=C(COc1ccc(Cl)cc1)NC1=NN(c2ccccc2)C(=O)C1	-1.6%	12.2	3.9	-14.5	2.5
COc1cc(C2OC(=O)c3ccccc3S2)cc(OC)c1OC (centres undefined)	-12.5%	nt	-2.3	nt	23.0
COc1cccc(CC2(CO)CCN(Cc3cn(C)nc3C)CC2)c1	-4.5%	-3.7	0.9	nt	-2.2
Cc1ccc(NC(=S)NC(=O)C2CCC2)cc1C	nt	nt	4.7	nt	89.7
COc1cc(NC(=O)CN2CCN(S(=O)(=O)c3ccc(C(C)C)cc3)CC2)cc(OC)c1	9.0%	-13.3	nt	21.2	-0.1
CCOc1ccccc1-c1nc(-c2ccc(NC(=O)c3ccc(Br)o3)cc2)no1	14.2%	1.2	-0.2	-99.2	24.3
O=C(O)CN1C(=O)COc2cc(S(=O)(=O)N3CCCC3)ccc21	5.6%	2.0	-1.3	-41.6	2.2	Arbovirus anti repeat=6.3
COc1ccc(Cl)cc1NC(=O)C1CSC(c2ccncc2)=N1 (centres undefined)	13.8%	-2.9	-1.9	-10.3	-1.9	Arbovirus anti repeat=-6.6
CC(=O)Nc1ccc(C(=O)/C=C/c2ccco2)cc1	-0.4%	8.3	0.1	-18.3	-4.1
COc1ccc(C2CC(=O)Oc3c(C(CCN4CCCCC4)c4ccc(N(C)C)cc4)c(OC)cc(OC)c32)cc1 (centres undefined)	-2.7%	nt	-0.6	nt	-5.1
COc1c(CC=C(C)C)cc(C2CC(=O)c3c(O)cc(O)cc3O2)cc1CC=C(C)C (centres undefined)	10.0%	nt	8.0	nt	-3.0
NC1=NC(c2ccc(Br)cc2)n2c(nc3ccccc32)N1 (centres undefined)	-8.3%	-8.1	4.2	21.9	-6.5
CCOc1ccc(CCNC(=O)COC(=O)Cc2ccc(OC)c(OC)c2)cc1OCC	nt	nt	-4.7	nt	-4.7
CC(=O)Nc1ccc(NC(=O)Cn2cc3c(n2)CCCC3)cc1	-8.5%	2.3	0.1	-35.3	-2.4
CCC(C)NC(=O)C1CC(=O)N(CCc2ccc(F)cc2)C1 (centres undefined)	nt	nt	-1.0	nt	2.0
C/C(=N\NC(=O)c1cccnc1)c1ccc(C)c([N+](=O)[O-])c1	-2.0%	-5.1	0.7	nt	1.2
O=C(CSc1nc2ccccc2n1CC(=O)N1CCCC1)N1CCN(C(=O)c2ccco2)CC1	-5.9%	3.8	nt	8.2	3.2
O=C(Cc1c(F)cccc1Cl)N/N=C/c1cccnc1	nt	nt	0.5	nt	-1.4
CCOc1c(Br)cc(/C=C2\C(=O)N(CCC#N)N=C2C)cc1OC	-3.1%	-3.7	89.5*	-36.4	-11.2
Cc1ccc(NC(=O)CSc2nccn2Cc2ccco2)cc1	nt	nt	0.5	nt	-3.1
CC(C)Cn1nc(C(=O)OCC(=O)NCC(F)(F)F)c2ccccc2c1=O	nt	-0.2	2.0	nt	-0.1
CC(C)c1ccc(NC2CCCN(C(=O)CCCn3cncn3)C2)cc1 (centres undefined)	nt	nt	0.5	nt	-1.0
CN=C1S/C(=C\c2cn(CC(=O)OC)c3ccccc23)C(=O)N1C	56.4%	-3.7	nt	nt	84.0
CCOC(=O)C1CCN(C(=O)COC(=O)COc2ccc(Cl)cc2)CC1	-0.2%	2.8	-1.6	nt	0.8
O=c1ccc(NS(=O)(=O)c2ccccc2Cl)cn1Cc1ccc(Cl)c(Cl)c1	2.7%	-1.9	3.1	nt	0.8
CCCCN(C)Cc1c(C)[nH]c2c(ccc3ccccc32)c1=O	nt	nt	-0.7	nt	-0.1
CCO[C@@H]1OC(C(=O)O)=C[C@H](C)[C@H]1CCCO	-3.9%	0.7	-1.1	nt	-5.2
O=S(=O)(c1ccc2nc(N3CCN(c4ccccc4F)CC3)ccc2c1)N1CCCCC1	nt	nt	0.9	nt	-1.7
O=C(O)/C=C/c1nc(-c2ccccc2)n2ccccc12	-2.7%	-5.2	-14.0	-7.0	0.9
Cc1ccc(S(=O)(=O)CC(=O)Nc2sc(C)c(C)c2C(N)=O)cc1	nt	nt	13.0	nt	-10.9
O=C(N/N=C/c1cc(Cl)cc([N+](=O)[O-])c1O)C1CC1	-11.7%	nt	0.4	nt	58.5
CN1CCSc2ccc(C(=O)NCc3cccc(F)c3)cc21	nt	nt	-13.1	nt	-9.6
O=C(CCNS(=O)(=O)c1ccccc1F)N1CCN(C(c2ccccc2)c2ccccc2)CC1	nt	nt	13.0	nt	9.1
O=C(COC(=O)CNS(=O)(=O)/C=C/c1ccccc1)Nc1cccc2ccccc12	-9.3%	-5.0	-2.2	nt	0.4
Cc1nc2ccc([N+](=O)[O-])cc2nc1C	6.4%	-3.6	-1.4	nt	4.2
Cc1cc(/C=C2/SC(=O)NC2=O)c(C)n1-c1ccc(N2CCOCC2)cc1	-8.6%	9.3	2.0	-12.5	0.7
Cc1cc(C)nc(/N=C(\N)Nc2ccc(C)c([N+](=O)[O-])c2)n1	-14.7%	7.4	1.9	-41.4	2.3

Fetched by structure from the entries so far (2):
SMILES	Mtb growth	Arbovirus anti	RecA intein inh	YopH PTP inh	Mtb betalactam	others
O=C(Cc1c(F)cccc1Cl)N/N=C/c1cccnc1	nt	nt	0.5	nt	-1.4
CN1CCSc2ccc(C(=O)NCc3cccc(F)c3)cc21	nt	nt	-13.1	nt	-9.6

(continued)
SMILES	Mtb growth	Arbovirus anti	RecA intein inh	YopH PTP inh	Mtb betalactam	others
O=C(O)c1ccccc1C(=O)NNC(=O)C(c1ccccc1)c1ccccc1	nt	nt	0.1	nt	-6.7
COc1ccccc1NC(=O)N(Cc1ccccc1)c1ccccn1	8.3%	-4.6	11.8	-152.9	51.5	Arbovirus anti repeat=2.5
CC1CCCCN1CCCNC(=O)CCCN1C(=O)c2cccnc2Sc2ccccc21 (centres undefined)	nt	nt	2.0	nt	-6.6
COC(=O)c1ccccc1NC(=O)CSc1nccn1C	-9.2%	-3.2	-1.7	3.1	-1.6	Arbovirus anti repeat=-1.6
CCCC(C)NC(C)C(=O)NC1CCCC1 (centres undefined)	-6.8%	2.4	-0.1	5.6	-3.0
COc1ccc(N(CC(=O)NCCSc2ccccc2)S(=O)(=O)c2ccccc2)cc1	nt	nt	2.5	nt	10.8
COc1cc(NC(=O)c2cccc3c2C(=O)N(C2CCCCC2)C3)cc(OC)c1OC	nt	nt	12.7	nt	80.4
COc1ccccc1NC(=O)CCC(=O)OC(C)C(=O)c1ccccc1 (centres undefined)	nt	nt	-3.9	nt	-0.1
CC(=O)N1CCCN(Cc2cn(-c3ccc(C)cc3)nc2-c2ccc(F)cc2)CC1	-2.1%	-4.6	1.6	nt	-4.4
N#Cc1c(-c2ccccc2Cl)cc(-c2ccccc2)[nH]c1=S	7.3%	0.7	6.7	nt	2.0
CC(C)CCNC(=O)Cc1ccc(Nc2nc(=S)[nH]c3ccccc23)cc1	3.7%	-7.0	1.7	nt	-11.2
O=C1CN(C(=O)c2cc(Br)c(Br)s2)c2ccccc2N1	0.9%	-17.2	-1.5	-20.9	-10.2
Cc1cccc(-n2cc(-c3ccccc3)c3c(NN4CCOCC4)ncnc32)c1	3.6%	-17.5	7.3	-3.8	77.3
CC(C)C(=O)OC/C(O)=C(\C#N)c1nc2ccccc2[nH]1	-0.6%	6.0	1.4	nt	-1.2
CC(OC(=O)CCN=C1NS(=O)(=O)c2ccccc21)C(=O)NC1CCCCC1C (centres undefined)	nt	nt	-8.6	nt	-4.1
CCc1nnc(NC(=O)C2(C)COC(c3ccc(OC)cc3)OC2)s1 (centres undefined)	-1.9%	-3.8	nt	nt	-6.5
Cc1ccnc(NC(=O)Nc2ccc3c(c2)N(C)C(=O)CS3)c1	5.1%	5.7	1.0	-24.8	19.9
Cc1cc(C)c(C#N)c(SCc2ccccc2)n1	-0.2%	-0.5	1.3	-20.3	-12.7
CCOCCn1c(N2CCCC2)nc2c1c(=O)n(C)c(=O)n2C	nt	nt	0.9	nt	-3.4
O=C1CCCCC1c1cccc2ccccc12 (centres undefined)	-1.1%	-1.6	1.5	-27.1	8.7
O=c1[nH]c2ccc(S(=O)(=O)NCCO)cc2[nH]1	-1.8%	4.3	-1.1	nt	-0.4
Cc1ccc2c(c1)c1c(n2C)C(C(N)=O)CCC1 (centres undefined)	-17.2%	16.2	1.4	-9.3	-17.4
O=C(COC(=O)c1cncc(Br)c1)NCCC1=CCCCC1	7.6%	9.6	1.4	-25.8	-4.4
Cc1ccc(S(=O)(=O)C(C#N)c2nc3ccccc3nc2OC(C)C)cc1 (centres undefined)	35.9%	4.8	-2.5	-31.1	-3.0
COc1ccc(C(CC(=O)NC(C)(C)C)n2cccc2)cc1 (centres undefined)	0.2%	0.1	-2.5	-32.0	-7.4
CCC/C=C1/CCCOC(C(=O)NCCN2CCOCC2)(C(F)(F)F)C1 (centres undefined)	-3.5%	nt	0.0	nt	-0.9
Cc1ncoc1C(=O)N1CCCC(C(=O)Nc2cccc(-c3ccc(F)cc3)c2)C1 (centres undefined)	nt	nt	2.5	nt	11.1
CC1(C)c2ssc(=S)c2-c2ccccc2N1C(=O)CSC1=NCCS1	-14.2%	-2.1	51.1*	-42.5	-1.9
COc1ccc([N+](=O)[O-])cc1COc1cc(C)cc2oc(=O)cc(-c3ccccc3)c12	8.2%	2.1	2.9	17.1	-10.9
Cc1cc(C(=O)COC(=O)c2ccc(Cl)c(S(N)(=O)=O)c2)c(C)n1C1CC1	nt	nt	1.9	nt	0.5
CC1CCN(C(=S)Nc2cccc(S(=O)(=O)N(C)C)c2)CC1	-2.3%	9.3	-1.3	nt	-4.1
CCN1CCN(C(=O)c2ccc3c(Cl)c4c(nc3c2)CCCC4)CC1	nt	nt	4.6	nt	-13.8
COc1ccc(-c2nc(CSCC(=O)NCCC3=CCCCC3)c(C)o2)cc1OC	-1.3%	-13.4	-5.3	5.9	?
CCOC(=O)c1c(-c2ccccc2)nc2cc(C)ccn12	22.6%	-3.0	2.5	12.3	13.3
c1ccc(-c2cc(N3CCOCC3)nc3ccccc23)cc1	-2.2%	0.4	3.7	-5.8	nt
Cc1ccc(NC(=O)CCC(=O)NNC(=O)COc2ccccc2)c(C)c1	2.2%	0.1	-1.4	-17.1	9.2
O=C(Nc1nnc(-c2ccco2)o1)c1cccc(Cl)c1	?	-26.1	7.2	nt	88.7
COc1ccc(OC)c(CCNC(=O)CS(=O)(=O)Cc2nc(-c3ccccc3C)oc2C)c1	nt	-0.1	2.5	-36.1	?
COc1ccc2nc(NC(=O)C3CSC4(C)CCC(=O)N34)sc2c1 (centres undefined)	nt	nt	0.0	nt	-2.1
O=C(CCCOc1ccc(Cl)cc1Cl)Nc1ccccn1	-7.0%	-14.9	0.4	nt	2.3

Molecules shown so far that contain bromine, in the order listed:
SMILES	Mtb growth	Arbovirus anti	RecA intein inh	YopH PTP inh	Mtb betalactam	others
CCOc1ccccc1-c1nc(-c2ccc(NC(=O)c3ccc(Br)o3)cc2)no1	14.2%	1.2	-0.2	-99.2	24.3
NC1=NC(c2ccc(Br)cc2)n2c(nc3ccccc32)N1 (centres undefined)	-8.3%	-8.1	4.2	21.9	-6.5
CCOc1c(Br)cc(/C=C2\C(=O)N(CCC#N)N=C2C)cc1OC	-3.1%	-3.7	89.5*	-36.4	-11.2
O=C1CN(C(=O)c2cc(Br)c(Br)s2)c2ccccc2N1	0.9%	-17.2	-1.5	-20.9	-10.2
O=C(COC(=O)c1cncc(Br)c1)NCCC1=CCCCC1	7.6%	9.6	1.4	-25.8	-4.4

By substructure, those above containing a thiophene ring, fused or not
SMILES	Mtb growth	Arbovirus anti	RecA intein inh	YopH PTP inh	Mtb betalactam	others
Cc1ccc(S(=O)(=O)CC(=O)Nc2sc(C)c(C)c2C(N)=O)cc1	nt	nt	13.0	nt	-10.9
O=C1CN(C(=O)c2cc(Br)c(Br)s2)c2ccccc2N1	0.9%	-17.2	-1.5	-20.9	-10.2
